Compound activity: PubChem BioAssay, Johns Hopkins Ion Channel Center
KCNQ2 pot – enhances the rat KCNQ2 potassium channel | B-score at 10 µM | CHO-K1 KCNQ2, FluxOR thallium flux fluorescence; active compounds read high | hit rate 0.54% among 310,000 | O88943;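 active = fluorescence ratio B-score at least 3 SD of library B-scores, with initial fluorescence B-score within 3 SD, cut at about 5.3 in these data; same plate scores as AID 2156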;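 also: B-score of peak minus minimum over baseline fluorescence ratio after K+ and Tl+ stimulus; positive B-score means potentiation of KCNQ2 with more thallium influx and brighter signal; only the inactives scoring about 0 or higher are listed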
Target sequence (O88943 whole entry, looked up): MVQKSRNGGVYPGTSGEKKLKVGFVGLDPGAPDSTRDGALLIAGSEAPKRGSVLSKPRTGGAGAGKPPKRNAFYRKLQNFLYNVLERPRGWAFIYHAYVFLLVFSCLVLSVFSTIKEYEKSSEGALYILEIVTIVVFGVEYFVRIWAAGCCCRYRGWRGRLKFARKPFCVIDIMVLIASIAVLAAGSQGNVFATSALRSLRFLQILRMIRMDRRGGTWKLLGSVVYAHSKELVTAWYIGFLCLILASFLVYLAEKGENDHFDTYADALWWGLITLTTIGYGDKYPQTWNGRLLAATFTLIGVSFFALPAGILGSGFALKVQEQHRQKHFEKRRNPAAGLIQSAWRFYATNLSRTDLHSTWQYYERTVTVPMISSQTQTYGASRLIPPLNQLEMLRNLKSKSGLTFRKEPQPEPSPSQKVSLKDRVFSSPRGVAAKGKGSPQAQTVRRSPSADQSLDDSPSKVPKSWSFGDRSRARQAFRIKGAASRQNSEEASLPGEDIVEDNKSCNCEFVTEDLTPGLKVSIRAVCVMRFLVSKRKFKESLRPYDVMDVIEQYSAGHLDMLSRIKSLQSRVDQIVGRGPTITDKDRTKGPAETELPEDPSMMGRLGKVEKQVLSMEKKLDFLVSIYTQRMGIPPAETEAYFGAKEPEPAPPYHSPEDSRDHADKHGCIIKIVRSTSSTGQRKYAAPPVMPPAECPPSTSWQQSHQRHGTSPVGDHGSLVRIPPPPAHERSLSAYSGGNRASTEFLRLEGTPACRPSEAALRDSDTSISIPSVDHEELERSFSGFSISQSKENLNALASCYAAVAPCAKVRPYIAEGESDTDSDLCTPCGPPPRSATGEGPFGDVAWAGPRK
KCNQ2 pot baseline – second read-out of KCNQ2 pot, no call of its own (marks repeat the call); B-score; compound at 10 µM; measured here: initial fluorescence intensity artifact check;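 brightness before thallium and not channel activity; 0 = typical well and far values either way flag optical interference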
An asterisk follows results filed as active; nt = no result given. An excerpt; rates above refer to the full screens.

No. | compound | KCNQ2 pot | KCNQ2 pot baseline
1 | O=C(Nc1ccnn1C1CCN(C(=O)c2cccc(Cl)c2)CC1)C1CCOC1 (stereo unspecified) | 1.3 | -0.31
2 | CCCCCN1N=C(C)CC1=O | 0.71 | 0.5
3 | Cc1sc2nc(CSCC(=O)Nc3ccc(OC(F)F)cc3)[nH]c(=O)c2c1C | 1 | 2.5
4 | COc1ccc(Nc2nc(N)nc(CN3CCN(c4ccc(F)cc4)CC3)n2)cc1 | 0.71 | 1.9
5 | O=C(O)c1cccc(CSc2n[nH]c(-c3ccc(Cl)cc3Cl)n2)c1 | 4 | 0.35
6 | CCOC(=O)C1=C(c2ccccc2)NC(=O)NC1c1cc(OCC)c(O)c([N+](=O)[O-])c1 (stereo unspecified) | 0.27 | 1.4
7 | COCCn1c(SCC(=O)N2CCC(C)CC2)nc2ccccc2c1=O | 0.86 | -0.6
8 | COc1cc(CN2CCN(Cc3ccco3)CC2)cc(OC)c1 | 2.4 | 1.6
9 | CN(C)CCn1c(N)nc2ccccc21 | 0.37 | -0.41
10 | CCN1CCN(C(=O)C2CCCN(S(=O)(=O)c3cccc4nsnc34)C2)CC1 (stereo unspecified) | 0.12 | -0.01
11 | COc1ccc(C(C)NC(=O)CC23CC4CC(CC(C4)C2)C3)cc1 (stereo unspecified) | 5.7* | 0.32*
12 | COc1ccc(/C=N/NC(=O)c2ccc(NC(=O)c3cccc([N+](=O)[O-])c3)cc2)c(OC)c1 | 0.53 | -0.31
13 | CCC(=O)N(Cc1cc(=O)[nH]c2ccccc12)c1ccccc1C | 0.69 | 0.06
14 | CC(=O)N/N=C(\C)c1cccc(C(F)(F)F)c1 | 1.8 | 0.34
15 | COc1cccc(COC(=O)Nc2ccccc2F)c1 | 0.67 | -0.44
16 | COc1cccc(CNS(=O)(=O)c2c(C(=O)N3CCCCC3)c(C)n(C)c2C)c1 | 0.13 | -2.1
17 | CCOCCOC(=O)C1=C(C)NC(=O)NC1c1cc2c(cc1Br)OCO2 (stereo unspecified) | 0.01 | 1.4
18 | O=c1ccc(Oc2nc(N3CCCCC3)nc(N3CCCCC3)n2)n[nH]1 | 0.43 | -0.51
19 | CCN(CC(=O)NC1CCS(=O)(=O)C1)C(=O)/C=C/c1cccs1 (stereo unspecified) | 0.38 | -0.04
20 | Cc1ccc2c(c1)[C@@H](O)C[C@@H](C)N2N=O | 0.63 | -0.09
21 | CCN(C(=O)COC(=O)/C=C/c1cccc([N+](=O)[O-])c1)c1ccccc1 | 0.1 | 0.67
22 | O=C(CSc1ncnc2scc(-c3ccccc3)c12)Nc1ccc(C(=O)O)cc1 | 1.3 | -1.1
23 | COc1ccc(-c2nc3n(n2)C(=O)CC(c2ccco2)S3)cc1 (stereo unspecified) | 0.69 | -0.42
24 | CC(=O)NS(=O)(=O)c1cccnc1Nc1ccc(Cl)cc1 | 1.3 | 0.28
25 | C[C@@]1([C@@H](NC(=O)c2cccs2)c2ccc(-c3ccccc3)cc2)C[C@H]1C1CCCCC1 | 0.06 | 0.94
26 | Cc1ccc2oc(=O)c3cnn(CC(=O)N4CCN(c5ccccc5)CC4)c3c2c1 | 0.7 | -1.7
27 | CC(=O)c1sc(NC(=O)c2cccnc2Cl)nc1C | 0.93 | -0.08
28 | Cc1cc(=O)oc(C)c1C(=O)NC1CCCCCCC1 | 0.42 | -0.04
29 | Cc1cc(=O)n2nc(N3CCCC(C(=O)NCc4ccccc4)C3)sc2n1 (stereo unspecified) | 0.69 | 0.6
30 | O=C(CNC(=O)N1CC(=O)Nc2ccccc21)NCc1ccc(Cl)cc1 | 1.3 | 0.03
31 | CCN1CCC(C(N)=O)CC1 | 0.67 | -0.78
32 | COc1ccc(CCNC(=O)COC(=O)/C=C/c2ccc(OC)c(OC)c2)cc1 | 0.55 | -0.92
33 | CCN(CC)S(=O)(=O)c1cccc(N2CC(O)=C(c3ccccc3)C2=N)c1 | 0.2 | -2.4
34 | CC1CCC(NCc2ccco2)CC1 (stereo unspecified) | 0.27 | 0
35 | COc1ccc(CNC(=O)c2ccccc2SCC(=O)N2CCCC2)cc1OC | 1.7 | 0.82
36 | COc1ccc(NC(=O)c2nc(C)c(C3(C)CC(c4cccnc4)=NO3)s2)cc1 (stereo unspecified) | 0.84 | -1.4
37 | CC(=O)Nc1cc2nn(-c3ccccc3)nc2cc1C | 1 | -1.4
38 | CC(=O)NC(Cc1c[nH]c2ccccc12)C(=O)OCC(=O)Nc1cc(C)on1 (stereo unspecified) | 0.63 | -1.2
39 | O=c1c(C=NCCCO)c(-c2ccccc2)[nH]n1-c1nc2ccccc2s1 | 0.22 | 1.2
40 | CCn1c(COc2cccc3ccccc23)nnc1SCC(N)=O | 0.82 | 0.01
41 | CCn1c2ccccc2c2cc(NC(=O)CNC)ccc21 | 5.6* | 0*
42 | Clc1ccc(Cl)c(-c2ccc(/C=N/c3ncn[nH]3)o2)c1 | 0.19 | -1
43 | Cc1ccc(NC(=O)C2CCN(c3nc(C)cc(C)n3)CC2)cc1 | 0.2 | 0.18
44 | COc1ccc(OC)c(CCNC(=O)Cn2cccc2C(=O)c2ccccc2)c1 | 0.15 | 0.35
45 | CC1=C(C(N)=O)C(c2ccco2)C(C(N)=O)=C(C)N1 | 0.73 | 1.1
46 | Cc1cc(C)c2c(n1)sc1c(=O)n(-c3ccccc3)c(=O)[nH]c12 | 0.17 | 0.91
47 | COc1c(O)cccc1[C@H](O)C1CCN(CCc2ccc(F)cc2)CC1 | 0.33 | 2.2
48 | CCOC(=O)N1CCN(C(=O)C2CCCN(S(=O)(=O)c3c(C)cc(C)cc3C)C2)CC1 (stereo unspecified) | 0.01 | 0.15
49 | CN(CC1CCN(CCc2cccc(C(F)(F)F)c2)CC1)C(=O)c1ccccc1 | 0.66 | -0.01
50 | Cc1cccc(NC(=O)CCN2CCOCC2)c1 | 0.9 | -0.02

An excerpt from above in order of formula weight, high to low.
No. | compound | KCNQ2 pot | KCNQ2 pot baseline
35 | COc1ccc(CNC(=O)c2ccccc2SCC(=O)N2CCCC2)cc1OC | 1.7 | 0.82
44 | COc1ccc(OC)c(CCNC(=O)Cn2cccc2C(=O)c2ccccc2)c1 | 0.15 | 0.35
42 | Clc1ccc(Cl)c(-c2ccc(/C=N/c3ncn[nH]3)o2)c1 | 0.19 | -1
37 | CC(=O)Nc1cc2nn(-c3ccccc3)nc2cc1C | 1 | -1.4
50 | Cc1cccc(NC(=O)CCN2CCOCC2)c1 | 0.9 | -0.02

Continuation.
No. | compound | KCNQ2 pot | KCNQ2 pot baseline
51 | CCN1C(=O)[C@H]2[C@@H](c3ccc(C)cc3)N3C(=O)N(c4cccc(Br)c4)C(=O)[C@@]3(CC(C)C)[C@H]2C1=O | 0.02 | 0.36
52 | Cn1c(=O)c2c(ncn2CC(=O)OCC(=O)NC(c2ccccc2)c2ccccc2)n(C)c1=O | 0.55 | 0.77
53 | CCCCC(=O)N/N=C(/C)C1=C(C)C(C)(C)OC1=O | 0.85 | -0.35
54 | CC(=O)c1ccc(S(=O)(=O)N2CCN(C)CC2)cc1 | 0.81 | 1.7
55 | COc1ccc(CCNS(=O)(=O)c2ccc3c(c2)NC(=O)CCS3)cc1OC | 0.29 | 0.35
56 | CCN(CC)CCNC(=O)Cn1nc(-c2ccccc2)c2ccccc2c1=O | 1.1 | -0.51
57 | Fc1cccc(Cl)c1CNCc1cccnc1 | 1.7 | -2.9
58 | CCc1nnc(NC(=O)c2cnccn2)s1 | 0.79 | -0.04
59 | COc1cc2c(C(=O)NCCCN3CC(C)CC(C)C3)cn(CC(C)C)c(=O)c2cc1OC (stereo unspecified) | 0.38 | -0.37
60 | O=C(Nc1ccc(Cl)cn1)c1ccc(Br)c(S(=O)(=O)N2CCCCC2)c1 | 0.06 | 0.75
61 | O=C(CNS(=O)(=O)c1ccc(F)cc1)Nc1ccc(C(F)(F)F)cc1 | 0.64 | -0.8
62 | O=C(NNc1ccc([N+](=O)[O-])cc1)c1ccco1 | 0.86 | -1.7
63 | [O-][n+]1onc2c1CCc1c-2nn(-c2ccccc2Cl)[n+]1[O-] | 3.4 | -2.3
64 | CC(C)NS(=O)(=O)c1ccc(CCC(=O)N2CCCCC2)cc1 | 0.86 | -0.53
65 | O=C(NCc1ccccc1Cl)C1CCC(=O)N(C2CC2)C1 (stereo unspecified) | 1.1 | -1.3
66 | COc1ccc(S(=O)(=O)/N=C2\C=C(Nc3ccc(O)cc3)C(=O)c3ccccc32)cc1 | 2 | 0.56
67 | O=C(NC1CC1)C1CC(=O)N(c2cccc(Cl)c2Cl)C1 (stereo unspecified) | 0.83 | -1
68 | CCOC(=O)c1cc2c(=O)n3ccccc3nc2n(C(C)C)c1=NC(=O)c1ccco1 | 1.7 | 0.06
69 | CC(=O)N1CCCc2cc(S(=O)(=O)NC(C(=O)NCc3ccc(C)cc3)C(C)C)ccc21 (stereo unspecified) | 2.5 | -1.4
70 | O=C(CSc1ncc(-c2ccc(F)cc2)n1Cc1ccco1)Nc1nccs1 | 0.98 | 1.2
71 | CCN(CCCNC(=O)CNC(=O)Cn1cnc2ccccc2c1=O)c1cccc(C)c1 | 0.94 | -1.6
72 | CN(C(=O)CSc1nnc(NC2CCCCC2)s1)C1CCS(=O)(=O)C1 (stereo unspecified) | 2.3 | -0.1
73 | CC(=O)Nc1ccc2c(c1)CCCC2 | 0.33 | -0.46
74 | CCN(CC)c1ccc(NC(=O)CN2CCN(c3ccc(F)cc3)CC2)cc1 | 1.9 | 0.84
75 | CCOC(=O)c1cc(-c2ccccc2)sc1NC(=O)COC | 0.08 | 2.1
76 | Cc1ccccc1NC(=O)C(=O)NNC(=O)COc1ccc2ccccc2c1 | 7* | 1.4*
77 | O=[N+]([O-])c1ccc(/C=N/Nc2nc(N3CCCCC3)nc(N3CCCCC3)n2)o1 | -5.6 | nt
78 | COc1ccc(Br)cc1/C=N/NC(=O)c1ccco1 | 1.9 | 0.03
79 | CC1CC(Nc2ccccc2)=CC(=O)O1 (stereo unspecified) | 0.12 | -0.44
80 | O=C(CCCc1ccccc1)NCc1ccc2c(c1)OCO2 | 0.01 | -0.69
81 | c1ccc(-c2nc3c(ccc4ccccc43)[nH]2)nc1 | 8.4* | 3*
82 | O=C(CSc1nc2nccnc2c(=O)n1Cc1cccs1)Nc1ccccc1 | 0.41 | 0.72
83 | O=C(Nc1nc2ccc([N+](=O)[O-])cc2s1)c1ccncc1 | 0.01 | 0.62
84 | COc1cc(CC(=O)OCC(=O)N2CCCCC2C)cc(OC)c1OC (stereo unspecified) | 0.83 | -0.06
85 | N#Cc1c(N)n[nH]c1-c1cc2c([nH]1)CCCC2 | 0.63 | 1.6
86 | Cc1nc(C)c(NC(=O)OC(C)C)cc1NC(=O)OC(C)C | 0.51 | -1.4
87 | CC(=O)Nc1cccc(OCC(=O)NCCC2=CCCCC2)c1 | 1.1 | 0.8
88 | O=S(=O)(N/N=C/c1cccc(OC2CSC2)c1)c1ccccc1 | 2.4 | 0.16
89 | COc1ccc(CN2C(=O)c3cccnc3C2=O)cc1S(=O)(=O)N1CCOc2ccccc21 | 0.65 | -1.2
90 | CCN(CC)C(=O)CC(c1ccc(OC)cc1)c1c(OC)cc(OC)c2ccc(=O)oc12 (stereo unspecified) | 0.19 | -0.07
91 | Cc1ccc(NC(=O)N/C=C/c2ccco2)cc1C | 0.14 | 0.36
92 | COc1ccccc1-n1c(SCC(=O)NC(C)(C)C)nc(O)cc1=O | 0.5 | 0.24
93 | O=C(NCCNc1ccc(Cl)cc1[N+](=O)[O-])c1cccnc1 | 2.3 | 0.62
94 | CCOC(=O)N1CCN(S(=O)(=O)c2cc(Br)cc3c2N(C(C)=O)C(C)C3)CC1 (stereo unspecified) | 0.13 | -2.1
95 | Cc1cc2cc(CN(CCCO)S(=O)(=O)c3cccc4nsnc34)c(=O)[nH]c2cc1C | 0.26 | -0.69
96 | Cc1cc(N2C(=O)C3CC=CCC3C2=O)no1 (stereo unspecified) | 0.25 | 1.2
97 | CC(C)N1CCC(N2CCN(C/C=C/c3ccc(F)cc3)CC2CCO)CC1 (stereo unspecified) | 0.33 | -1.8
98 | O=C1COc2ccc(C(=O)COC(=O)c3sc4ccccc4c3Cl)cc2N1 | 0.75 | 0.45
99 | COc1cccc(C=Nc2ccc(N3CCOCC3)cc2)c1O | 1.2 | 0.02
100 | COCCNC(=O)c1cc2cc(Cl)cc(Cl)c2oc1=O | 0.21 | -1.8

Complete entries as entered above. Order of values: KCNQ2 pot	KCNQ2 pot baseline
O=C(CSc1nc2nccnc2c(=O)n1Cc1cccs1)Nc1ccccc1 in the list: 0.41	0.72
CC(C)N1CCC(N2CCN(C/C=C/c3ccc(F)cc3)CC2CCO)CC1 (stereo unspecified) in the list: 0.33	-1.8

Carrying on.
No. | compound | KCNQ2 pot | KCNQ2 pot baseline
101 | Cc1ccc2oc(/N=C(\N)NC(=O)C(C)(C)C)nc2c1 | 2 | 1.3
102 | Cc1ccccc1NC(=S)N(CCN(C)C)C(C)c1ccccn1 (stereo unspecified) | 1.2 | 1.8
103 | CCc1c(C(C)S(=O)(=O)c2ccccc2)[nH]c(=O)n1CC (stereo unspecified) | 0.05 | 0.32
104 | Cc1cccc(N2C(=O)CC(N3CCN(Cc4ccc(Cl)cc4)CC3)C2=O)c1 (stereo unspecified) | 0.04 | 0.95
105 | COc1ccc(O)c(-c2cc(-c3ccc(F)cc3)n[nH]2)c1 | 0.08 | 0.67
106 | O=P(c1ccc2c(c1)OCCO2)(N1CCOCC1)N1CCOCC1 | 0.97 | 0.13
107 | COC(=O)c1sc(S(=O)(=O)NCC(=O)O)c(C(=O)OC)c1C | 1.5 | -2.4
108 | CCN(CC)S(=O)(=O)c1cccc(C(=O)N[C@H](C(=O)NNC(=O)c2ccccc2)C(C)C)c1 | 8* | -0.22*
109 | CCc1cc(=O)oc2c3c(cc(OCC(=O)Nc4cccnc4)c12)OC(C)(C)CC3 | 0.24 | -1.9
